Source: PubChem BioAssay
LANA-H2B inh = blocks KSHV LANA binding to histone H2A/H2B | inhibition, % (concentration not given with the values) | AID 2629 | Q9QR71 | 0.6% of 320,000 active | cell-free LANA-H2A/H2B peptide, fluorescence polarization; in the data active = inhibition mostly above about 10%, no sharp cut-off; inactive = mostly below about 6.7%;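 note: stock transfer was 7.5 nL into about 10 µL; 0% = median of vehicle wells and 100% = median of positive control wells; one replicate is shown; the record names a cut of 25% in any replicate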
Ecoli growth = inhibitors of Escherichia coli growth. OD600 absorbance (test concentration not listed). OD600, 23 h; active compounds read low. 0.21% of 330,000 active. AID 1053175;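 active = OD600 absorbance below the run mean of sample wells minus 3.6 SD, in any replicate, cut at about 0.56 in these data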;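 note: stock transfer was 300 nL into about 60 µL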
A1 inh = inhibitors of the anti-apoptotic protein A1, read as caspase activation; 0.066% of 330,000 active; caspase activation, % (no concentration beside the values); MEF A1-2A-BIM cells, Caspase-Glo 3/7 luminescence, 3 h; percent of clofoctol response, vehicle zero;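 active = over half of replicate activation scores above 10%, or exactly half above 10 with the replicate mean above 10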;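 note: wells of about 30 µL received 50 nL stock; many hits fall short of the cut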
UCH37 DUB inh = human UCH37 deubiquitinating enzyme inhibition | purified proteasome/UCH37, Ub-AMC cleavage fluorescence | inhibition, % (no concentration beside the values) | 0.33% of 330,000 active | AID 588478;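 active = mean of two replicates above 20%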;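 note: 0% = compound-free wells with enzyme and 100% = wells lacking proteasome; stock transfer was 100 nL into about 20 µL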
Target sequence (Q9Y5K5 whole entry, looked up): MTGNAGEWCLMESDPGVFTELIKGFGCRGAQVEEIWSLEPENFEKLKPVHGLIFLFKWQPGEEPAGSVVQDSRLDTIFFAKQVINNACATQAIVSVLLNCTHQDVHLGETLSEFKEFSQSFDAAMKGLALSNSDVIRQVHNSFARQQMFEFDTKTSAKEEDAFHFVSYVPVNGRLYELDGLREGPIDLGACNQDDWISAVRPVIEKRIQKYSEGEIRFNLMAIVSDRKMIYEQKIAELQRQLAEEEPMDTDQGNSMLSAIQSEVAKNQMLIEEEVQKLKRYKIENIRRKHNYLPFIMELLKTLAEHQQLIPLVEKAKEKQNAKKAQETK
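Material: Human UCH37 enzyme supplied as purified proteasome complex | Schedule: 30 min compound-proteasome preincubation then 25 min substrate reaction, room temperature | Detection: AMC fluorescence from Ub-AMC cleavage, excitation 355 nm, emission 460 nm | Benchmarks: Wells without proteasome as full block, compound-free enzyme plus substrate as uninhibited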
HNF4A DNA FP = change in binding of human HNF4 alpha to DNA. HNF4a-FITC DNA binding, fluorescence polarization, 1 h. P41235. AID 1224865. 0.3% of 360,000 active. activity change, % at 10 µM; in the data active = activity change above about 30%, passing the limit was not always enough;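 note: controls were the assay level and a saturating level of protein; the project sought stronger binding though the title names inhibitors; some compounds called inactive have numbers as strong as hits; positive values seem to mean higher polarization but the record does not say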
Vif TR-FRET = HIV-1 Vif–A3G interaction blockers – biochemical, TR-FRET, GST-Vif 1-94, biotin-A3G peptide, dose response retest, primary screen (AID 1117319); TR-FRET GST-Vif / biotin-A3G peptide binding; higher % means a stronger effect; test concentration not given here; strong numbers were not always called active; inhibition, %; hits with a dose series show IC50 in µM; 0.57% of 260,000 active;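 active = above the screen mean plus three standard deviations and confirmed in dose response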;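 note: Vif residues 1-94 fused to GST binding biotinylated APOBEC3G peptide 110-148; 0% = full assay without inhibitor and 100% = GST in place of GST-Vif; retest series ran down from 100 µM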
B2AR ag = activates human beta-2 adrenergic receptor causing internalization; P07550; Am2.2-beta2AR cells, FAP receptor internalization, flow cytometry; reference of the scale not given here; response, % (test concentration not listed); 0.43% of 340,000 active;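 active = response above a set limit, near 3 SD of response in nonfluorescent compounds, cut at about 42% in these data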;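 note: stock transfer was 100 nL into about 11 µL; a reference agonist was the positive control; negative values mostly stem from fluorescent compounds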
Target sequence (P07550 whole entry, looked up): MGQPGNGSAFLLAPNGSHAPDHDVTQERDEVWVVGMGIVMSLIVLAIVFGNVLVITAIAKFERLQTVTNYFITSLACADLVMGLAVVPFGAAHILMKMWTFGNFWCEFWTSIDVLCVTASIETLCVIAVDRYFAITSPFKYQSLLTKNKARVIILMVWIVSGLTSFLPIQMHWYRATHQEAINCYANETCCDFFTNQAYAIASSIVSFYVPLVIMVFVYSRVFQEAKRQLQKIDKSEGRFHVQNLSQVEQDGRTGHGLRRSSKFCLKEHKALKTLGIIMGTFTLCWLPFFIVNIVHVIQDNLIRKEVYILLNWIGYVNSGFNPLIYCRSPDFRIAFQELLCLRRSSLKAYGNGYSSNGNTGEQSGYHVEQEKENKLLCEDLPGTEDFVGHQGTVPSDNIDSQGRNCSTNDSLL
* = called active by the depositor; . = no result given; & = joins results of further samples. This is a random part of the collection. About 2.1% of those tested had a hit in this group.

1. CCOc1ccc(CNc2ccc(CNc3ncn[nH]3)cc2)cc1
2. CN(C)c1ccc(-c2c(-c3ccc4c(c3)OCO4)noc2-c2ccsc2)cn1
3. COc1ccc(NC(=O)CN(c2ccc(C)cc2)S(=O)(=O)c2c(C)nn(C)c2C)cc1OC
4. Cc1nn(CC(=O)O)c(=O)c2ccccc12
5. COc1ccc(C(=O)Nc2ccc3ccccc3n2)cc1OC
6. COc1cc(/C(O)=C(\C#N)c2nc3ccccc3[nH]2)cc(OC)c1OC
Compound	1	2	3	4	5	6
LANA-H2B inh	1.0	-3.6	-0.2	-11	1.5	3.3
Ecoli growth	0.63	0.74	0.71	0.65	0.68	0.66
A1 inh	0.5	-0.5	-0.3	0.2	-1.1	1.1
UCH37 DUB inh	0.3	1.2	6.1	0.3	1.0	-41
HNF4A DNA FP	-0.4	-1.6	0.5	0.3	-1.2	10
Vif TR-FRET	-3%	.	3%&-1%	3%	-4%	3%
B2AR ag	-3	-4	0	8	-4	0

7. COc1ccc(CNC(=O)Cn2nc(C(F)(F)F)cc2C)cc1
8. COc1ccc(C(=O)N[C@H](C(=O)NC2CCCCC2)C(C)C)cc1
9. COc1ccc(NC(=S)Nc2ccc(S(N)(=O)=O)cc2)c(C)c1
10. Cc1cccc(NC(=O)NCc2ccc3[nH]c(C)cc3c2)c1
11. COc1ccc(-c2cc(C(F)F)n3ncc(C(=O)Nc4cccc(S(=O)(=O)N5CCOCC5)c4)c3n2)cc1
12. CCOC(=O)C(NC(C)=O)(NC(C)C)C(F)(F)F (stereo not drawn)
Compound	7	8	9	10	11	12
LANA-H2B inh	-12	-1.5	3.7	7.0	5.7	2.4
Ecoli growth	0.66	0.72	0.66	0.74	0.7	0.65
A1 inh	0.0	0.5	0.4	-4.1	0.4	0.8
UCH37 DUB inh	-1.4	3.3	3.5	4.4	-9.8	1.3
HNF4A DNA FP	1.9	-0.8	0.1	-1.9	-1.2	-3.0
Vif TR-FRET	17%	.	-4%	17%	-2%	-6%
B2AR ag	0	-1	-2	11	3	-2

13. CC(=O)N1C(=O)NC2=C(C(=O)CCC2)C1c1cccc([N+](=O)[O-])c1 (stereo not drawn)
14. Cc1onc(-c2ccccc2Cl)c1C(=O)OCn1nnc2ccccc2c1=O
15. COc1nc(-c2ccccc2)ccc1-c1noc(COc2ccccc2)n1
16. N#CCCN1CCC(NC(=O)OCc2ccccc2)CCC1=O (stereo not drawn)
17. Cc1ccc(SCC(=O)c2ccc[nH]2)cc1
18. CSc1ccc(S(=O)(=O)N2CCC(C(=O)NCc3ccccn3)CC2)cc1
Compound	13	14	15	16	17	18
LANA-H2B inh	-1.0	-1.8	-3.5	0.7	-0.7	5.8
Ecoli growth	0.64	0.67	0.72	0.63	0.69	0.7
A1 inh	1.1	1.1	1.0	-0.3	-1.4	-0.1
UCH37 DUB inh	0.8	4.7	-33	3.2	5.3	1.7
HNF4A DNA FP	3.4	-0.1	2.4	3.6	1.7	-3.0
Vif TR-FRET	.	-2%&0%	7%	.	0%	.
B2AR ag	6	7	-5	-6	0	-9

19. Cc1c(Cl)cccc1NC(=O)Nc1cccnc1
20. CC(=O)Nc1ccc(NC(=O)CSc2nncn2C)cc1
21. CC(=O)c1cccc(NC(=O)C(OC(=O)/C=C/c2ccc3c(c2)OCO3)c2ccccc2)c1 (stereo not drawn)
22. N#Cc1ccccc1S(=O)(=O)N1CCN(C(=O)C2CCCCC2)CC1
23. CNc1ccc(N=Nc2cccc3ncccc23)cc1
24. CC(=O)c1cc2c(cc1N)OCO2
Compound	19	20	21	22	23	24
LANA-H2B inh	1.9	-4.8	1.8	-1.4	.	1.6
Ecoli growth	0.65	0.7	0.72	0.63	0.69	0.65
A1 inh	-0.4	0.7	0.0	1.6	.	0.1
UCH37 DUB inh	0.7	0.4	-14	0.0	2.1	4.8
HNF4A DNA FP	-0.6	0.9	5.8	-2.3	2.5	-0.7
Vif TR-FRET	.	.	-1%	.	-3%	-1%
B2AR ag	-8	-7	0	0	-10	-1

25. O=C(O)c1ccc(S(=O)(=O)c2ccc3c(c2)C(=O)N(Cc2ccco2)C3=O)cc1
26. Cc1ccc(S(=O)(=O)N2CC=C(C(=O)NCc3ccccc3)CC2)cc1
27. CCN1CN(Cc2ccco2)CNC1=S
28. Cc1cccc(Oc2ccccc2NC(=O)c2cnccn2)c1
29. CCOC(=O)N1CCC(NC(=O)c2cc(S(=O)(=O)N3CCC4(CC3)OCCO4)ccc2F)CC1
30. COc1ccccc1NC(=O)/C(C#N)=C/c1ccncc1
Compound	25	26	27	28	29	30
LANA-H2B inh	-8.5	4.8	-4.8	0.3	2.5	3.1
Ecoli growth	0.71	0.77	0.7	0.81	0.71	0.71
A1 inh	-0.5	1.1	-1.2	-0.3	0.1	0.3
UCH37 DUB inh	2.1	4.2	2.6	-0.3	-12	4.9
HNF4A DNA FP	10	-0.5	0.0	-3.0	1.5	2.1
Vif TR-FRET	>100µM*	-5%	.	10%	-6%&-7%	0%
B2AR ag	-1	-5	48*	1	-7	5

Another view of some results above:
nr	canonical_smiles	LANA-H2B inh	Ecoli growth	A1 inh	UCH37 DUB inh	HNF4A DNA FP	Vif TR-FRET	B2AR ag
16	N#CCCN1CCC(NC(=O)OCc2ccccc2)CCC1=O (stereo not drawn)	0.7	0.63	-0.3	3.2	3.6	.	-6
17	Cc1ccc(SCC(=O)c2ccc[nH]2)cc1	-0.7	0.69	-1.4	5.3	1.7	0%	0
18	CSc1ccc(S(=O)(=O)N2CCC(C(=O)NCc3ccccn3)CC2)cc1	5.8	0.7	-0.1	1.7	-3.0	.	-9
19	Cc1c(Cl)cccc1NC(=O)Nc1cccnc1	1.9	0.65	-0.4	0.7	-0.6	.	-8
20	CC(=O)Nc1ccc(NC(=O)CSc2nncn2C)cc1	-4.8	0.7	0.7	0.4	0.9	.	-7
21	CC(=O)c1cccc(NC(=O)C(OC(=O)/C=C/c2ccc3c(c2)OCO3)c2ccccc2)c1 (stereo not drawn)	1.8	0.72	0.0	-14	5.8	-1%	0
22	N#Cc1ccccc1S(=O)(=O)N1CCN(C(=O)C2CCCCC2)CC1	-1.4	0.63	1.6	0.0	-2.3	.	0
23	CNc1ccc(N=Nc2cccc3ncccc23)cc1	.	0.69	.	2.1	2.5	-3%	-10
24	CC(=O)c1cc2c(cc1N)OCO2	1.6	0.65	0.1	4.8	-0.7	-1%	-1
25	O=C(O)c1ccc(S(=O)(=O)c2ccc3c(c2)C(=O)N(Cc2ccco2)C3=O)cc1	-8.5	0.71	-0.5	2.1	10	>100µM*	-1
26	Cc1ccc(S(=O)(=O)N2CC=C(C(=O)NCc3ccccc3)CC2)cc1	4.8	0.77	1.1	4.2	-0.5	-5%	-5
27	CCN1CN(Cc2ccco2)CNC1=S	-4.8	0.7	-1.2	2.6	0.0	.	48*
28	Cc1cccc(Oc2ccccc2NC(=O)c2cnccn2)c1	0.3	0.81	-0.3	-0.3	-3.0	10%	1

Carrying on:
31. Cc1ccc(NC(=O)c2cc(C)nn2-c2ccccc2)cc1
32. Cc1ccc(C)c(OCC(=O)NNC(=O)c2ccc(NC(=O)C3CC3)cc2)c1
33. C/C(CC(=O)Nc1ccc(Cl)cc1C(F)(F)F)=N\NC(=O)c1cccs1
34. O=C1CN(c2ccccc2)C(=S)N1C(=O)c1ccc(Br)cc1
35. Cc1ccc2cc3c(N)c(C(=O)N4CC(=O)Nc5ccccc54)sc3nc2c1
36. Cc1oc(-c2cc(F)cc(F)c2)nc1CN1CCSCC1
Compound	31	32	33	34	35	36
LANA-H2B inh	-1.3	3.3	0.7	-1.3	4.1	-5.4
Ecoli growth	0.76	0.72	.	0.64	.	0.7
A1 inh	0.1	0.4	-1.2	-0.2	0.2	0.2
UCH37 DUB inh	1.6	0.2	.	-6.0	.	3.0
HNF4A DNA FP	-2.3	-0.2	1.8	7.1	.	0.1
Vif TR-FRET	10%	.	-14%	.	-4%	-16%
B2AR ag	1	-14	-3	-2	.	-2

An excerpt from above in order of SMILES length, rising.
31. Cc1ccc(NC(=O)c2cc(C)nn2-c2ccccc2)cc1
35. Cc1ccc2cc3c(N)c(C(=O)N4CC(=O)Nc5ccccc54)sc3nc2c1
32. Cc1ccc(C)c(OCC(=O)NNC(=O)c2ccc(NC(=O)C3CC3)cc2)c1
Compound	31	35	32
LANA-H2B inh	-1.3	4.1	3.3
Ecoli growth	0.76	.	0.72
A1 inh	0.1	0.2	0.4
UCH37 DUB inh	1.6	.	0.2
HNF4A DNA FP	-2.3	.	-0.2
Vif TR-FRET	10%	-4%	.
B2AR ag	1	.	-14
